# Bioassay records deposited in PubChem BioAssay by National Center for Advancing Translational Sciences (NCATS).
# LT uptake inh = blocks cellular internalization of anthrax lethal toxin | Cells, anthrax lethal toxin internalization, FRET ratio (460/530) | 70,000 tested, 0.67% active | Potency, µM (top dose mostly 40 µM), for inactives: at the top dose activity change, negative = inhibition, actives largely listed as inhibitors; active = well fitted falling ratio curve with the 530 nm signal flat; inconclusive = other ratio curves, or a change in one channel alone; inactive = flat curves in the ratio and both channels; the % refers to the ratio; further: on the % scale 0 is the no-effect control and ±100 the full control effect; nearly all actives have a fitted effect of over 50% in size; tested in ME-180 cells; beta-lactamase reporter
# Prx2 Sm inh = Schistosoma mansoni Prx2 inhibition | S. mansoni Prx2 activity coupled to TGR/GSH (TGR is thioredoxin glutathione reductase), NADPH fluorescence loss, qHTS; some inactives read as strong as hits | Potency, µM | 65,000 tested, 0.07% active | AID 448; active means full or partial inhibition curve with a strong effect at the top dose; inconclusive means weaker partial or single-point curve; inactive means no accepted curve; further: series up to 57 µM; many of its hits are not listed in these tables
#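 Enzyme mix: 100 uM NADPH, 25 nM TGR, 700 uM GSH, 50 nM Prx2 in 100 mM phosphate pH 7.4, 10 mM EDTA, 0.01% Tween-20. 15 min RT with compound; NADPH/GSH added, H2O2 starts reaction; NADPH fluorescence read 8 min.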
# The depositor's hits bear a star; ? = inconclusive; · = no result given; & = joins results of further samples; [ ] = dose if it differs, or a comment. Potency means the concentration at half of the fitted maximal effect. Only part of the results is shown; the hit share may differ from the screen's.
no.	Structure	Prx2 Sm inh	LT uptake inh
1	Cc1ccc(NC(=O)CS(=O)CC(=O)NCC2OCCc3ccccc32)c(C)c1 (configuration not stated)	>57	0%
2	Cc1cc(C)cc(N(CC(=O)NCC2CCCO2)C(=O)CN2C(=O)COc3ccccc32)c1 (configuration not stated)	>57	10%
3	Cc1ccc(NC(=O)N2CCC(C(=O)NCCC3=CCCCC3)CC2)cc1	>57	-4%
4	Cc1onc(-c2ccccc2Cl)c1C(=O)Nc1cccnc1	>57	-3%
5	CC(C)OC(=O)c1cc(=O)[nH]c2ccccc12	>57	-5%
6	O=P(OCCCl)(OCCCl)OCCCl	·	1%
7	COc1cccc(CC(=O)Nn2c(C)nc3ccccc3c2=O)c1	>57	-2%
8	CCc1nnc(NC(=O)c2cc3c(s2)CCCCC3)s1	>57	-1%
9	CCCCN1C(=O)C(O)(CC(=O)c2ccccc2OC)c2ccccc21 (configuration not stated)	>57	-9%
10	COc1ccccc1CNc1nc(-c2cccc(NS(C)(=O)=O)c2)nc2ccccc12	>57	13µM*
11	Cc1ccccc1NC(=O)CN1C(=O)COc2ccc(Cl)cc21	>57	10µM*
12	Cc1ccc(C(=O)NCc2ccc(Cl)cc2)o1	>57	2%
13	NC(=O)CN1C(=O)C2CCCCN2C(=O)c2ccccc21 (configuration not stated)	>57	4%
14	O=C(NCc1cccs1)c1cccnc1C(=O)O	>57	5%
15	Cc1cc(C)cc(N(CC(=O)NC2CCCCC2)C(=O)CCC(=O)Nc2cc(C)ccn2)c1	>57	-15%
16	O=C(Nc1c(C(=O)N2CCOCC2)cnn1-c1ccccc1)c1ccco1	>57	10%
17	O=C(CCNC(=O)Cn1ccc2ccccc2c1=O)NCCN1CCN(c2ccccc2F)CC1	>57	-7%
18	COC(=O)NCCOC(=O)N(O)c1ccc(Br)cc1	>57	11%
19	O=C(COc1ccc2c(c1)OCO2)NC12CC3CC(CC(C3)C1)C2	>57	11%
20	COc1ccccc1N1CCN(c2cc(=O)n(-c3ccc(Cl)cc3)c(=O)[nH]2)CC1	>57	-11%
21	Cc1nc2ccc(NC(=O)N3CCCCC3)cc2s1	>57	4%
22	COc1ccc(-c2nc(CS(=O)CC(=O)NCc3ccccn3)c(C)o2)cc1 (configuration not stated)	>57	-10%
23	CCOC(=O)C1CCCN(c2c(NCCCN(CC)c3cccc(C)c3)c(=O)c2=O)C1 (configuration not stated)	>57	?
24	O=C(OCC(O)CN1CCCCC1)C12CC3CC(CC(C3)C1)C2 (configuration not stated)	>57	?
25	O=C(Nc1ccccc1)c1ccc2nc(-c3ccco3)c(-c3ccco3)nc2c1	>57	?
26	Cc1ccc(NC(=O)c2ccc3ccccc3n2)nc1	>57	3%
27	Cn1c(=O)c2c(nc(NCc3ccccc3)n2Cc2ccc(F)cc2)n(C)c1=O	>57	-10%
28	O=C(CCc1nc2ccccc2c(=O)[nH]1)N1CCN(C/C=C/c2ccccc2)CC1	>57	8%
29	O=C(NCC1CCCO1)c1csc2c1CCCC2 (configuration not stated)	>57	7%
30	CNc1ccc(OC(F)F)cc1C(=O)c1ccccc1	·	?

# Entries 26–30 from above:
no.	Structure	Prx2 Sm inh	LT uptake inh
26	Cc1ccc(NC(=O)c2ccc3ccccc3n2)nc1	>57	3%
27	Cn1c(=O)c2c(nc(NCc3ccccc3)n2Cc2ccc(F)cc2)n(C)c1=O	>57	-10%
28	O=C(CCc1nc2ccccc2c(=O)[nH]1)N1CCN(C/C=C/c2ccccc2)CC1	>57	8%
29	O=C(NCC1CCCO1)c1csc2c1CCCC2 (configuration not stated)	>57	7%
30	CNc1ccc(OC(F)F)cc1C(=O)c1ccccc1	·	?

# (listing goes on)
no.	Structure	Prx2 Sm inh	LT uptake inh
31	COc1ccc(C(C#N)(CCC#N)CCC#N)cc1OC	·	7%
32	COc1ccc(C)cc1NC(=O)CSc1nc(SC)ns1	>57	-17%
33	COCc1cc(=O)[nH]c(SCC(=O)Nc2ccccc2)n1	>57	-4%
34	Cc1nc(Nc2ccncc2)c2oc3ccccc3c2n1	>57	-8%
35	COc1ccc(-c2nc3cnc(OC)nc3n(C[C@H]3CCCO3)c2=O)cc1	>57	1%
36	Nc1nnc(CCN2C(=O)CSC2=O)s1	>57	-5%
37	COc1ccc(C(=O)c2oc3ccccc3c2N)cc1	·	19%
38	COc1ccc(CCNC(=O)CSc2nnnn2-c2ccccc2)cc1	·	-9%
39	Nc1cc(=O)nc(SCc2ccccc2)n1Cc1ccco1	>57	?
40	Cc1cccc(C)c1NS(=O)(=O)c1ccc(F)cc1	>57	-4%
41	COC(=O)[C@@]1(Cc2ccc(F)cc2)[C@H]2c3cc(C(=O)N(C)C)n(Cc4ccccn4)c3C[C@H]2CN1C(=O)c1ccccc1	>57	?
42	COc1cccc(-c2nc(CC(=O)O)cs2)c1OC	>57	-20%
43	CCCNC(=O)c1ccccc1NC(=O)CN(c1ccccc1OCC)S(C)(=O)=O	>57	-24%
44	CCC(=NCCC1=CCCCC1)c1c(O)[nH]c(=O)[nH]c1=O	>57	-24%
45	CCOc1ccc(NC(=O)CNC(=O)c2ccc(OC)c(OC)c2)cc1	>57	?
46	Cc1cccc(N2CC3=C(C2=O)C(c2ccccc2)NC(=O)N3C)c1 (configuration not stated)	>57	?
47	NC(=O)C1CC(=O)N(Cc2ccc3c(c2)OCO3)C(=Nc2ccccc2)S1 (configuration not stated)	·	-12%
48	CCN(Cc1ccccc1)C(c1ccncc1)c1nnnn1C(C)(C)C (configuration not stated)	>57	-17%
49	CCOC(=O)N1CCC(NC(=O)c2cn(-c3ccc(OC)cc3)c(=O)c3ccccc23)CC1	>57	?
50	CCOC(=O)c1[nH]c(C)c(C(=O)Nc2ccc(Cl)cc2)c1C	>57	-11%
51	CCC(Oc1ccccc1)C(=O)Nc1cc(C)on1 (configuration not stated)	>57	-2%
52	O=C(COc1ccccc1)N1CCN(C/C=C/c2ccccc2)CC1	>57	-5%
53	O=C(CSc1nnnn1C1CCCCC1)NCCc1ccccc1	>57	0%
54	Cn1c2c(c(=O)[nH]c1=O)C(NC(=O)c1ccco1)(C(F)(F)F)C(=O)N2 (configuration not stated)	>57	-1%
55	CC(=O)n1nc(-c2ccco2)nc1SCc1ccccc1	?	7.9µM*
56	CCN(CC)S(=O)(=O)c1cccc(-c2nnc(SCC(=O)NCCC3=CCCCC3)n2N)c1	>57	-20%
57	OC1CCCC1	·	-1%
58	O=C(CN1C(=O)COc2ccccc21)Nc1ccc(F)cc1	>57	16%
59	CC(C)NC[C@H](O)c1ccc(O)c(O)c1	>57&>57&>57&>57&>57&>57&>57	?
60	COc1ccc(-c2nnc3ccc(SCC(=O)N4CCCC4)nn23)cc1	>57	9%

no.	Structure	Prx2 Sm inh	LT uptake inh
61	CCc1nc2ccc(C(=O)NCc3ccco3)cc2nc1CC	>57	-17%
62	O=C(O)C1C2C=CC(O2)C1C(=O)NCc1ccc(Cl)cc1 (configuration not stated)	>57	-10%
63	CCOC(=O)c1cc2c(=O)n(C)c3ccccc3c2s1	>57	2%
64	Cc1cc2c(nc1C)CCCN2CC(O)CN1CCCc2nc(C)c(C)cc21	·	-4%[8 µM]
65	O=C(O)CSc1nnc(-c2ccncc2)n1CCc1ccccc1	>57	?
66	COc1ccc(/C=N\n2nnc3ccccc32)cc1	>57	-1%
67	Cc1cccc(CS(=O)(=O)Cc2ccc(C(=O)NCc3ccco3)o2)c1	>57	-5%
68	CCCCCCCCCCCCC1CO1 (configuration not stated)	·	?
69	Cc1[nH]c(=O)[nH]c(=O)c1NC(=O)CSc1ncccc1-c1nc2ccccc2[nH]1	>57	-5%
70	Cc1cc(C)n(-c2nc3c(c(=O)n(C)c(=O)n3C)n2Cc2cccc(Br)c2)n1	>57	·
71	Cc1ccc(Cl)cc1N1CCN(C(=O)C2CCN(c3nnc(-n4cccc4)s3)CC2)CC1	>57	?
72	Cc1ccc(-c2noc(CCC(=O)N3CCN(c4cccc(C(F)(F)F)c4)CC3)n2)cc1	>57	-1%
73	O=C(NC1CCCC1)C(c1cccnc1)N(C(=O)c1csnn1)C1CC1 (configuration not stated)	>57	?
74	Cc1nn(-c2ccccn2)c(C)c1Oc1ccccc1O	>57	3%
75	CCN(CC)c1ccc(NC(=O)CN2C(=O)CSc3ncccc32)c(C)c1	>57	-18%
76	O=C(O)C1CN2CCC1CC2 (configuration not stated)	·	11%
77	CCS(=O)(=O)N1CCc2cc(OC)c(OC)cc2C1	>57	-1%
78	CCC1CCc2sc(C(=O)O)cc2C1 (configuration not stated)	>57	-9%
79	Cn1c(Cc2csc(N)n2)nnc1SCC(=O)NCc1ccccc1	>57	·
80	Cc1csc2nc(CSc3nncn3-c3ccccc3)c(Br)n12	>57	-11%
81	O=C(O)CCCCNS(=O)(=O)c1ccc(Cl)c(C(F)(F)F)c1	>57	?
82	CCOC(=O)Cc1csc(SCC(=O)Nc2sc3c(c2C(N)=O)CCC3)n1	>57	6%
83	COCCCN1C(=O)c2ccccc2C1C(=O)NC1CCCCCC1 (configuration not stated)	>57	4%
84	C=CCOc1ccc(/C(O)=C2\C(=O)C(=O)N(CCCOC)C2c2ccncc2)cc1 (configuration not stated)	>57	-10%
85	Cc1nnc(SCC(=O)N2CCc3ccccc32)n1-c1ccccc1	>57	-9%
86	CC(C)(C)C(=O)N=C1SC2CS(=O)(=O)CC2N1c1ccc2c(c1)OCO2 (configuration not stated)	>57	?
87	NCCP(=O)(O)O	>57	-9%[8 µM]
88	CCOC(=O)c1c(-c2ccc(C)o2)csc1NC(=O)COC(=O)c1cccs1	>57	-5%
89	C(=NC12CN3CN(CN(C3)C1)C2)c1cccnc1	>57	6%
90	CCn1c(NCc2ccco2)nc2c1c(=O)n(C)c(=O)n2C	>57	11%

no.	Structure	Prx2 Sm inh	LT uptake inh
91	COc1ccc(OC)c(C(c2nnnn2C2CCCC2)N2CCN(c3ccccc3F)CC2)c1 (configuration not stated)	>57	-24%
92	O=C(NCC1CCCO1)C1CCN(S(=O)(=O)N2CCCC2)CC1 (configuration not stated)	>57	8%
93	CCCCN(C)CCCNC(=O)CCn1nc(-c2ccccc2)ccc1=O	>57	1%
94	Cc1ccc(C)c(N2CCN(CCCNC(=O)Cn3cc4c(n3)CCC(C)C4)CC2)c1 (configuration not stated)	>57	-9%
95	O=c1[nH]nc2c3ccccc3cnn12	>57	5%
96	Cc1ccc(C(=O)N2CCN(C(=O)CN3CCCC3)C2)cc1	>57	1%
97	O=C(COn1nnc2ccc(Cl)cc21)NCc1ccccc1	>57	3%
98	CC(NC(=O)c1cccc(N2CCCC2=O)c1)c1ccc2c(c1)OCCO2 (configuration not stated)	>57	16%
99	COCCn1c(=O)c(-c2cccc(Cl)c2)nc2cncnc21	>57	?
100	CC1CCC2C(=O)N3C(CCC(C)[C@@H]3c3ccc(-c4ccco4)cc3)C(=O)N2C1c1cccc(N2CCCC2=O)c1 (some centres not stated)	·	-15%[8 µM]
101	CNC(=O)N(O)C1N(C)C(=O)N(Cc2ccccc2)C1(C)C (configuration not stated)	>57	13%
102	Cn1c(=O)c2cc(S(=O)(=O)Nc3cccc(F)c3)ccc2n(C)c1=O	>57	-6%
103	CCS(=O)(=O)n1nc(-c2ccc(Cl)cc2)nc1N	>57	-9%
104	O=C(NCc1ccco1)C1CCN(c2nnc(-n3cccc3)s2)CC1	>57	-5%
105	CCCC(=O)Nc1ccc2nc(SCC(=O)Nc3nccs3)sc2c1	>57	-8%
106	O=C(O)C1CCCCC1C(=O)Nc1cccc(C(=O)N2CCCCC2)c1 (configuration not stated)	>57	-2%
107	Cc1ccc(S(=O)(=O)Nc2ccc3oc(=O)sc3c2)c(C)c1	>57	?
108	COc1ccc(Cn2c(=O)[nH]c3cc(C(=O)NCCCN4CCCCC4)ccc3c2=O)cc1	>57	6%
109	CCn1c(COc2ccc3c(c2)OCO3)nnc1SCC(=O)c1ccccc1	>57	3%
110	COc1ccc(CC(=O)NCc2nnc(SCCOc3ccccc3)n2C)cc1	>57	5%
111	COc1ccc(NC(=O)c2cc(-c3cccs3)on2)cc1OC	>57	-4%
112	c1ccc2c(-n3cnnn3)cccc2c1	>57	-8%
113	CCOc1ccc(CCNC(=O)C2CCN(c3nn4c(=O)cc(C)nc4s3)CC2)cc1OCC	>57	-1%
114	CC(C)OP(=O)(c1ccc(N(C)C)cc1)C(O)c1ccncc1 (configuration not stated)	>57	9%
115	Cc1cc(=O)[nH]c(SCC(=O)N2c3ccccc3CC2C)n1 (configuration not stated)	>57	4%
116	O=C1CCC(C(=O)NCCCn2ccnc2)N1 (configuration not stated)	>57	4%
117	Cn1c(=O)c(C(=O)c2ccccc2)nc2ccccc21	>57	-3%
118	CCN1C(=O)[C@H]2[C@H]3[C@H](O)[C@H](O)C/C(=N/O[C@@H](C)c4cn([C@H]5COC[C@H]5O)nn4)[C@@H]3CC[C@@H]2C1=O	·	-9%[8 µM]
119	CCc1c(C)nc(SCC(=O)Nc2cccc(Br)c2)[nH]c1=O	>57	?
120	N#CC(C(=O)NCc1ccccc1)c1nc2ccccc2nc1N1CCCC1 (configuration not stated)	>57	?

# Some of the entries so far, screen by screen:
96. Cc1ccc(C(=O)N2CCN(C(=O)CN3CCCC3)C2)cc1
97. O=C(COn1nnc2ccc(Cl)cc21)NCc1ccccc1
compound no.	96	97
Prx2 Sm inh	>57	>57
LT uptake inh	1%	3%
